Source: PubChem
RecA splice inh = blocks M. tuberculosis RecA intein splicing; inhibition, %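 (about 9 µM by stock and volumes)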; AID 2221; P9WHJ3; cell-free RecA intein splicing, fluorescence; hit rate 0.75% among 290,000; in the data active = inhibition above about 30%; inconclusive = no clear call, values can overlap the other calls;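 note: 0% = vehicle wells and 100% = reference inhibitor control wells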
Target sequence (P9WHJ3 whole entry, looked up, canonical isoform): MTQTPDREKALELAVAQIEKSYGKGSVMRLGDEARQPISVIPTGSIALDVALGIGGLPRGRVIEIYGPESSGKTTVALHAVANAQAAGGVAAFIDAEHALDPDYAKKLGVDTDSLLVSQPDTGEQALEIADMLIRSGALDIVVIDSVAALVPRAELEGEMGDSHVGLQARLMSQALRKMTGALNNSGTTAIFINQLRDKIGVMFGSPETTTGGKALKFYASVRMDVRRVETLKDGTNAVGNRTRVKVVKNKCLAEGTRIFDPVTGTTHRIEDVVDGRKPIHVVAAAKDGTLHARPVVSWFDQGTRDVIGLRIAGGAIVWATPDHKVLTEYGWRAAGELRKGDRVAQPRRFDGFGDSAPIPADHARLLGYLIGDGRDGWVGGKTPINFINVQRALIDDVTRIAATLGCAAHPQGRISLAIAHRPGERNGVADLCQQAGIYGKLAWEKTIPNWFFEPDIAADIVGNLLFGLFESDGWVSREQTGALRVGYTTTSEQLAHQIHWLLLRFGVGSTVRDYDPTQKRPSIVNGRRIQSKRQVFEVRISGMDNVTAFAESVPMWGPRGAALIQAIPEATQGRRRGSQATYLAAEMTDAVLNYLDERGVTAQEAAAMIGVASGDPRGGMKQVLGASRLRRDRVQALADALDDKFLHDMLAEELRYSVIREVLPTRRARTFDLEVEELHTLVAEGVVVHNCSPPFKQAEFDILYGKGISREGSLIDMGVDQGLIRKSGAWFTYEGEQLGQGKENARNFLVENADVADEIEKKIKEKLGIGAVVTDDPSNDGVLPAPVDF
Mtb bLac sens = beta-lactam sensitization of Mtb H37Rv; M. tuberculosis H37Rv growth with meropenem, percent inhibition; hits of this screen are not shown here; inhibition, % at 25 µM; hit rate 0.27% among 330,000;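 active = about 74% or more and at least 40 points above the plate without the antibiotic, then above 30% in a dose series; inconclusive = first-round hits that could not be retested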;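 note: growth measured after seven days incubation then overnight dye step; 0% = bacteria only wells and 100% = bacteria with antibiotic; twin plates without the antibiotic show which effects depend on it; some results filed as inactive read as strong as hits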
Mtb growth = M. tuberculosis H37Rv growth inhibitors, H37Rv strain (AID 1626) | M. tuberculosis H37Rv growth inhibition; higher % means a stronger effect | inhibition, % at 10 µM; hits with a dose series show IC50 in µM | hit rate 0.95% among 220,000;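 active = confirmed in a dose series; inconclusive = inhibition above 80% but not taken into the dose series; inactive = below 80% or under 30% at every dose of the series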;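 note: bacteria incubated seven days before Alamar blue readout; 0% = bacteria only wells and 100% = bacteria with antibiotic wells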
YopH PTP inh = YopH (Yersinia) phosphatase inhibition; AID 898; fluorescence Ex485/Em525; hit rate 0.16% among 140,000; inhibition, %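 (about 10 µM by stock and volumes)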;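 active = inhibition of 50% or more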;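 note: controls were vehicle for no effect and minimum signal wells for full effect; inactives centre near -20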
Arbovirus inh = blocks arbovirus infection; hit rate 0.37% among 200,000; inhibition, % at 10 µM; AID 1251; arbovirus infection cell-based antiviral screen;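 active = inhibition from about 30%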;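 note: bluetongue infection of BSR cells; cell survival read as ATP light after 72 h; 0% = infected wells without compound and 100% = uninfected wells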
Arbovirus inh repeat = further read-out of Arbovirus inh, marked with its call; inhibition, %; measured here: 10K subset replicate screen; many hits read low in the repeat;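 first of two repeat runs on a subset; 0% = infected and 100% = uninfected wells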
* = called active by the depositor; ? = inconclusive; . = not tested or not shown. The list is partial; the hit share may differ from the screen's.

SMILES	RecA splice inh	Mtb bLac sens	Mtb growth	YopH PTP inh	Arbovirus inh	others
CCOC(=O)c1c(S(=O)(=O)NCCc2ccc(OC)c(OC)c2)c(C)n(C)c1C	0.1	1	.	.	.
CC(C)CN(CCCNC(=O)CN1C(=O)COc2ccc(S(=O)(=O)N3CCCCCC3)cc21)CC(C)C	-1.4	-6	.	.	.
CN(C)/C=C(\C=O)c1cccc(Cl)c1	-2.5	2	1%	.	11
O=C(NCc1ccc(Cl)cc1)C1CCN(S(=O)(=O)N2CCOCC2)CC1	-2.3	-8	-4%	.	15
CC(C)(C(=O)N[C@H](CO)c1ccccc1)C(=O)N[C@H](CO)c1ccccc1	1.2	-5	.	.	.
Clc1cccc(-c2nnc3n2CCCCC3)c1	-0.6	-7	5%	.	8
CCCCN1C(=S)SC(C)(C)C1/[N+]([O-])=C/c1cccnc1 (centres undefined)	-2.4	0	0%	12	0
CCCOC(=O)C1=C(C)N(C)C(=O)NC1c1cc2c(cc1Br)OCO2 (centres undefined)	2.1	5	.	.	.
CCCn1c(=O)c(C(=O)Nc2cccc(C)c2)c(O)c2ccccc21	0.1	99	.	.	.
CCOC(=O)CSc1nnc(CCc2nc3ccccc3[nH]2)n1C	-0.8	-1	1%	1	4
Cc1n[nH]c(=O)n1-c1ccc(Oc2ccccc2)cc1	-0.3	-8	-10%	3	6
COc1cc(NC(=O)COC(=O)c2cnccn2)c(C)cc1[N+](=O)[O-]	2.1	-6	4%	.	.
CNC(=O)c1nnc(Cc2ccc(Cl)cc2)o1	-1.0	-3	2%	-47	1
CCC(c1nnnn1Cc1ccco1)N(Cc1ccccc1OC)Cc1cc2cc(C)ccc2[nH]c1=O (centres undefined)	-6.3	-4	11%	-5	4
COc1ccccc1OCCCOc1c(Cl)cc(C)cc1Cl	4.4	31	8%	-34	-1
CN(C)c1ccc(C(=O)N2CC(=O)N(CCc3ccccc3)C(=O)C2)cc1	2.1	-7	.	-27	3
CC1(C)CC2CC(C)(CN2/C=N/c2sc3c(c2C#N)CC(C)(C)NC3(C)C)C1 (centres undefined)	.	-2	10%	.	.
CC(OC(=O)c1cc2sccc2n1C)C(=O)NCC1CCCO1 (centres undefined)	1.4	-3	-3%	-34	-7
CCOC(=O)c1c(CN2CCOCC2)n(-c2ccccc2)c2ccc(O)cc12	4.4	12	-5%	-25	3
O=C(NNC1=Nc2ccccc2SC1)c1ccc(F)cc1	3.2	95	?	.	.
CC1(C)C2([N+](=O)[O-])CN3CC1([N+](=O)[O-])CN(C2)C3C(O)C(O)C(O)CO (centres undefined)	1.4	-10	-2%	.	.
O=S(=O)(NCCc1csc(-c2ccccc2)n1)c1ccc2c(c1)OCCO2	3.8	5	4%	-40	6
CCOCCCNC(=O)c1ccc2c(c1)OCO2	-7.4	0	-1%	11	5
Nc1nc(SCC(=O)Nc2ccc(Cl)cc2)[nH]c(=O)c1-c1ccccc1	-1.9	0	-6%	.	-1

An excerpt from above in order of length of the SMILES, low to high:
SMILES	RecA splice inh	Mtb bLac sens	Mtb growth	YopH PTP inh	Arbovirus inh	others
CNC(=O)c1nnc(Cc2ccc(Cl)cc2)o1	-1.0	-3	2%	-47	1
O=C(NNC1=Nc2ccccc2SC1)c1ccc(F)cc1	3.2	95	?	.	.
CC(OC(=O)c1cc2sccc2n1C)C(=O)NCC1CCCO1 (centres undefined)	1.4	-3	-3%	-34	-7
CC1(C)CC2CC(C)(CN2/C=N/c2sc3c(c2C#N)CC(C)(C)NC3(C)C)C1 (centres undefined)	.	-2	10%	.	.
CC1(C)C2([N+](=O)[O-])CN3CC1([N+](=O)[O-])CN(C2)C3C(O)C(O)C(O)CO (centres undefined)	1.4	-10	-2%	.	.

(continued)
SMILES	RecA splice inh	Mtb bLac sens	Mtb growth	YopH PTP inh	Arbovirus inh	others
COc1cccc(C(O)c2nc3ccccc3n2C(C)C)c1 (centres undefined)	3.5	1	6%	-26	13
O=c1ccc(/C=C/c2ccccc2)nn1Cc1ccc(Cl)cc1Cl	2.7	8	7%	-22	-16
O=[N+]([O-])c1ccccc1S(=O)(=O)c1ccccc1	-3.9	2	.	.	.
CCOC(=O)c1sc2nc(NC(=O)C3CC3)sc2c1C	1.3	5	4%	-33	0	Arbovirus inh repeat=-2
CN(C)S(=O)(=O)c1cccc(NC(=O)Cn2cnc3ccccc3c2=O)c1	1.0	-5	-10%	-14	4
COc1ccc(C2(O)CN(c3ccc(C)cc3)C3=[N+]2CCCC3)cc1 (centres undefined)	.	-11	0%	.	-4
Cc1nnc(Sc2nc3c(c(=O)n(C)c(=O)n3C)n2Cc2ccc(Cl)cc2)s1	2.4	-1	2%	-18	1
CC(=O)N1N=C(c2ccccc2)OC1c1cccnc1 (centres undefined)	1.0	-3	-17%	.	3
COc1ccc(C(CNC(=O)c2ccc(C)c(S(=O)(=O)Nc3ccccc3OC)c2)N2CCCC2)cc1 (centres undefined)	3.8	-6	.	.	.
COc1cccc(CNC(=O)CCC2CCCN(C(=O)CCc3c(C)noc3C)C2)c1 (centres undefined)	-0.5	17	-6%	.	3
Cc1cccc(N2C(=O)C(Cc3ccccc3)NC2=S)c1 (centres undefined)	-1.7	0	7%	-19	0
Cn1cnnc1SC(C(=O)Nc1cc(Cl)cc(Cl)c1)c1ccccc1 (centres undefined)	-3.2	4	-10%	-17	13
CC(C)c1nc(SCC(=O)c2ccccc2)c2c(=O)n(C)c(=O)n(C)c2n1	-4.0	-3	1%	-47	-15
CCCc1cc(=O)[nH]c(Nc2cc(OC)ccc2OC)n1	0.2	8	6%	-14	-2
COCc1c(C(=O)N/N=C(/C)c2ccccc2)nnn1-c1nonc1N	3.7	-2	4%	.	-1
CCNS(=O)(=O)c1ccc(OCCNS(C)(=O)=O)cc1	2.7	-2	-7%	-19	1
N#Cc1c(N(CCO)CCO)nc(N)c2c(N)nc3c(c12)CC(=O)N3Cc1cccs1	-23	4	-13%	.	.
O=C(CCSCCc1ccccn1)Nc1ccc(Br)cn1	1.5	.	-3%	5	2
O=S(=O)(c1ccccc1)c1nc(Nc2cccc(O)c2)sc1Cl	4.3	2	1%	-27	-8
O=C(CCC(=O)OCC(=O)c1ccc(F)cc1)NC1CCCCC1	14	-4	-10%	2	1
NC(=O)c1ccc(NC(=O)COC(=O)CCCc2c[nH]c3ccccc23)cc1	2.4	1	-4%	.	-1
COc1cc(/C=N/NC(=O)c2cccc(NC(=O)c3ccccc3Cl)c2)ccc1O	-0.3	12	-1%	.	-10
CCOC(=O)C(=O)Nc1ccccc1C(=O)NCc1ccccc1	-2.2	-1	7%	.	5
CN(C(=O)CSc1nc(N)nn1-c1ccccc1)c1ccccc1	0.9	4	7%	0	9	Arbovirus inh repeat=-7
COc1cccc(NC(=O)CSc2nnc(Cn3c(=O)sc4ccccc43)n2C)c1	.	6	-2%	-34	3	Arbovirus inh repeat=0
COc1ccc(OC)c(NC(=O)c2ccc(NC(C)=O)cc2)c1	-0.2	3	-2%	-36	2	Arbovirus inh repeat=1
Cc1cc(C)c2sc(NNC(=O)C3COc4ccccc4O3)nc2c1 (centres undefined)	.	18	.	-28	-23
CC(C)CNC(=S)N1CCN(c2nc(-c3ccc(Cl)cc3)cs2)CC1	0.8	4	.	.	.
CCOC(=O)c1ccc(NC(=O)CSc2nc(N)c(NC(=O)c3ccc(Br)o3)c(=O)[nH]2)cc1	0.9	-8	.	.	.
Cc1ccc(S(=O)(=O)N(C)C)cc1NC(=O)COC(=O)CNC(=O)c1cccs1	0.6	-4	.	.	.
O=c1c2ccc(Cl)cc2nc(-c2cccc(C(F)(F)F)c2)n1O	3.2	99	?	-17	-19
CC(=O)C[C@H]1c2cc(C(F)(F)F)ccc2S(=O)(=O)N1C1CCCCC1	-2.8	-1	-2%	.	.
Cn1c(=O)cc(OCC(=O)NCc2cccnc2)c2ccccc21	-2.8	4	-15%	-32	-1
CCOc1ccc(-c2noc(CCCC(N)=O)n2)cc1OC	1.7	-6	-1%	-19	3
CCCNC(=O)c1ccc2c(=O)n(Cc3ccco3)c(=S)[nH]c2c1	-0.5	-5	-4%	.	9
O=C(CSc1nnc(-c2ccccc2)o1)Oc1ccc(Br)cc1	15	-4	-1%	-9	-3

Copied from the entries so far for reference:
SMILES	RecA splice inh	Mtb bLac sens	Mtb growth	YopH PTP inh	Arbovirus inh	others
CCOC(=O)c1c(S(=O)(=O)NCCc2ccc(OC)c(OC)c2)c(C)n(C)c1C	0.1	1	.	.	.
CC(C)CN(CCCNC(=O)CN1C(=O)COc2ccc(S(=O)(=O)N3CCCCCC3)cc21)CC(C)C	-1.4	-6	.	.	.
CN(C)/C=C(\C=O)c1cccc(Cl)c1	-2.5	2	1%	.	11
O=C(NCc1ccc(Cl)cc1)C1CCN(S(=O)(=O)N2CCOCC2)CC1	-2.3	-8	-4%	.	15
CC(C)(C(=O)N[C@H](CO)c1ccccc1)C(=O)N[C@H](CO)c1ccccc1	1.2	-5	.	.	.

(continued)
SMILES	RecA splice inh	Mtb bLac sens	Mtb growth	YopH PTP inh	Arbovirus inh	others
O=S(=O)(/N=C(\c1ccc(Cl)cc1)N1CCOCC1)c1ccccc1	-4.1	-6	7%	-16	11
CC(C)(C)[C@H]1CCC(=O)N([C@H](CN=[N+]=[N-])Cc2ccccc2)CC1	-4.1	-4	.	.	.
O=C(C1CCC(=O)N(C2CCCC2)C1)N1CCN(Cc2cccc(Cl)c2)CC1 (centres undefined)	0.0	-13	.	.	.
COC(=O)c1ccsc1NC(=O)CSc1nnnn1Cc1ccccc1	0.9	-2	-7%	3	8
Cc1ccc2c(c1)c(-c1ccccc1)nc1nncn12	1.6	-7	-3%	-31	5
COc1ccc(-c2nn3c(-c4ccccc4)nnc3s2)cc1OC	1.2	54	0%	-19	-8
CC(=O)Nc1ccc(N2C(=O)CSC2c2ccc(F)cc2)cc1 (centres undefined)	-4.3	9	-20%	-31	1
N#Cc1ccccc1NC(=O)c1cccc(COc2ccc(Cl)cc2Cl)c1	1.2	5	-1%	-44	-4
COc1cccc(NC(=O)CN(C)C(C)C(=O)Nc2ccc(S(=O)(=O)N3CCCC3)cc2)c1 (centres undefined)	0.0	-10	3%	.	2
CCn1c(-c2ccsc2)nc2c1c(=O)[nH]c(=O)n2Cc1ccccc1	0.2	7	10%	-31	2
O=c1cc(O)c(-c2ccc(Cl)c(Cl)c2)c(Cl)[nH]1	0.5	-4	.	.	14
Cc1cccc(OCC(=O)Nc2ccc(N3CCCC3)cc2)c1C	-1.0	40	20%	.	-7	Arbovirus inh repeat=-9
CC(c1ccon1)N(C)C(=O)CCc1nnc(C2(c3ccc(Cl)cc3)CCC2)o1 (centres undefined)	4.7	-1	7%	.	4
CC(C(=O)NC1CC1)c1ncc(C(F)(F)F)cc1Cl (centres undefined)	-0.3	2	2%	.	-3
O=C1CCN=C(Nc2ccc(F)cc2)N1Cc1ccccc1	2.6	6	-2%	-1	11
CC(C)c1ccc(C(=O)NCCCN2CCN(CCCNC(=O)c3ccc(C(C)C)cc3)CC2)cc1	2.2	68	2%	3	-39
CCOC(=O)CC(NS(=O)(=O)c1ccc(OC)c(OC)c1)c1cccc([N+](=O)[O-])c1 (centres undefined)	0.1	4	-2%	-14	-1
COc1ccccc1N(C(=O)CNC(=O)c1ccco1)C(C(=O)NC1CCCCC1)c1ccncc1 (centres undefined)	-1.0	-4	.	.	.
O=S(=O)(/N=C(/Nc1cccc2ccccc12)c1ccccc1)c1ccc(Br)cc1	-1.1	-7	.	.	.
Brc1ccc(-c2nnc3n2-c2ccccc2CC3)cc1	1.5	12	-3%	-31	-9
CCCCCn1c(=O)c(C(=O)c2ccccc2)nc2ccccc21	3.2	9	16%	15	1
CCCN(CCC)CCNC(=O)C1CC(=O)N(c2ccc(OC)cc2)C1c1ccc(OC)cc1 (centres undefined)	-3.5	-2	-7%	-25	6
CC(=O)c1cnn(-c2ccc(Cl)c(Cl)c2Cl)c1C	2.3	-10	-5%	.	.
CCOc1ccc(CNC(=O)C2CCN(S(=O)(=O)CC)CC2)cc1OC	-0.3	5	-5%	2	6
Cc1cccn2c(NCc3ccc4c(c3)OCO4)c(-c3ccc(O)cc3)nc12	-2.0	4	3%	.	0
Cc1ccc(-c2n[nH]c(=S)n2/N=C/c2ccc(C)o2)cc1	3.8	-4	14%	-16	-11
CCOc1ccccc1Nc1cc(C)nc2nnnn12	0.3	1	2%	.	0
COc1cc(CN2CCC(Cc3ccccc3)CC2)cc([N+](=O)[O-])c1O	-1.1	3	.	.	.
O=C(NC(Cc1ccccc1)C(=O)O)/C(=C\c1ccc(Br)cc1)NC(=O)c1ccc(Br)o1 (centres undefined)	0.9	-16	.	.	.
Cc1[nH]n(-c2ccccc2)c(=O)c1/C=N/N(c1ccccc1)c1ccccc1	3.3	31	-11%	.	-6
NNC(=O)CSc1nc(-c2ccccc2)cn1-c1ccccc1	1.4	-3	-9%	.	.
CCN(CC)C(=O)CSc1nnc(-c2ccco2)n1Cc1ccco1	-0.9	-1	-6%	-27	15
